# Source: PubChem BioAssay (ICCB-Longwood Screening Facility, Harvard Medical School)
# BasE inh = BasE siderophore enzyme inhibitors, primary screen, biochemical, Acinetobacter baumannii ATCC 17978, fluorescence polarization; 0.1% of 84,000 active; purified BasE, fluorescence polarization binding displacement; inhibition, % (test concentration not listed);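 active means both replicates above 25% with normal brightness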;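 further: 0% = negative plate control signal and 100% = positive plate control signal; stock transfer was 100 nL into about 30 µL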
# LANA-nucl inh = inhibitors of KSHV LANA-nucleosome binding, primary screen, biochemical, fluorescence polarization, FITC-LANA1-23, chicken nucleosomes. FITC-LANA1-23 / chicken nucleosome fluorescence polarization; stronger effect = lower value. z-score (no concentration beside the values). 0.3% of 51,000 active. AID 720717, 2013;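 active means both repeat wells score below -2 in polarization z-score versus plate sample wells, excluding overly bright wells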;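 further: 100 nL library stock added to about 30 µL; numbers are from one replicate; some results filed as inactive read as strong as hits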
#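 Material: Purified chicken nucleosomes with FITC-labelled LANA N-terminal peptide (1-23) | Reagent: 50 nM FITC-LANA1-23 probe | Medium: TEN-BT buffer, pH 7.5 | Times: 10–45 min incubation at room temperature | Detection: Fluorescence polarization | Replication: Duplicates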
# * hit, by the source's call; · = no result given; & = joins results of further samples.
SMILES,BasE inh,LANA-nucl inh
Cn1cc(NC(=O)NCc2ccc3c(c2)OCO3)c2ccccc21,0.4,-0.98
O=C(Cc1cn2ccsc2n1)N/N=C/c1c(Cl)cccc1Cl,-1.7,·
CCNCC(=O)Nc1ccccc1C(F)(F)F,2.0,·
CC1CCCCN1S(=O)(=O)c1ccc(NC(=O)COc2ccc(F)cc2)cc1 (configuration not stated),1.0,-0.29
Cc1ccccc1OCc1nc2ccccc2n1C,-1.4,0.72
CS(=O)(=O)N1CCN(CCc2ccccc2)CC1,2.2,0.27
O=C1NC(c2ccc(Cl)cc2)c2c1oc1ccccc1c2=O (configuration not stated),-0.6,0.71
N#Cc1ccc(NC(=O)/C=C/c2ccccc2)cc1,1.5,·
CC1CCN(CC(=O)Nc2ccc(F)cc2)CC1,-2.4,-0.78
Cc1nnc(SCc2cc(=O)c3c(=O)n(-c4ccccc4)[nH]c3[nH]2)s1,2.3,-0.2
CCOc1cc(-n2c(C)ccc2C)c(OCC)cc1N1CCOCC1,0.6,·
Cc1cc2nc(SCc3ccc(F)cc3)[nH]c2cc1C,0.7,·
Cc1ccc(C(=O)n2cnc3ccccc32)cc1,-1.2,-0.38
Cn1c(=O)n(C)c2cc3c(cc21)[nH]c(=O)c(=O)n3Cc1ccccc1,0.5,0.91
CCOc1ccc(OCC(O)CNC2CC(C)(C)NC(C)(C)C2)cc1 (configuration not stated),0.9,·
COC(=O)C1Cc2ccccc2CN1Cc1c(O)ccc2ccccc12 (configuration not stated),3.0,·
O=C(c1c[nH]c(=O)n(-c2ccccc2)c1=O)N1CCc2ccccc21,-0.7,-0.23
CCN(CC)S(=O)(=O)c1cccc(-c2nc(=S)[nH][nH]2)c1,-0.4,·
Nc1ccc(S(=O)(=O)Nc2nccs2)cc1,-0.3&2.9,1.1&-0.83&-0.086
CC(C)(C)C(=O)/C(C#N)=c1\s/c(=C\c2ccncc2)c(=O)n1CCCN1CCOCC1,1.1,·
COc1ccc2c(c1)CCC1C2=NN(C(C)=O)C1c1ccccc1F (configuration not stated),0.1,-0.32
O=S1(=O)CCN(Cc2ccc(OC(F)(F)F)cc2)CC1,·,-0.84
O=C(O)CNS(=O)(=O)c1cccc(C(F)(F)F)c1,0.2,·
Cc1nn(-c2ccc(Cl)cc2)c2sc(C(=O)N3C(C)CCCC3C)cc12 (configuration not stated),1.8,·
O=C1CCCC2=C1C(c1ccc(Cl)cc1)N=C(Nc1nc3ccccc3o1)N2 (configuration not stated),4.0,-0.53

# More structures follow.
SMILES,BasE inh,LANA-nucl inh
NC(=O)c1ccccc1NC(=O)COCC(=O)O,1.1,-0.27
Cc1cc(-c2ccc(S(=O)(=O)N3CCC4(CC3)OCCO4)s2)n[nH]1,-11,0.38
CC1(C)C2CCC1C(O)C2O (configuration not stated),-0.3,1.4
O=C(OCCN1C(=O)c2ccccc2C1=O)c1cccs1,9.1,0.076
COC(=O)C(Cc1ccccc1)NC(=O)C1CC(=O)N(c2cccc(C)c2C)C1 (configuration not stated),1.1,·
CCn1cnc2c1c(=O)n(CC(=O)Nc1cccc(OC)c1)c(=O)n2Cc1ccccc1,-2.4,·
Cc1ccc(OCCn2cccc2/C=C2\C(=N)N3N=C(N4CCCC4)SC3=NC2=O)c(C)c1,0.3,0.2
CC1CCN(c2cc(N3CCC4(CC3)OCCO4)c3noc4c3c2C(=O)c2ccccc2-4)CC1,-8.4,-0.81
Clc1cc2c(cc1C=Nc1ccc(N3CCOCC3)cc1)OCO2,-0.2,-0.55
CCc1ccc(-c2n[nH]c(=O)c3ccccc23)cc1,1.8,0.21
O=C(CC1OC(=O)c2ccccc21)Nc1ccccc1N1CCOCC1 (configuration not stated),0.7,·
C=CCOc1ccc(CNCc2cccnc2)cc1OC,1.6,1.1
Cc1nc2ccccc2cc1OCc1ccccc1,·,-0.67
O=C(COC(=O)/C=C/c1ccc(Br)o1)Nc1ccc2[nH]c(=O)[nH]c2c1,5.1,·
Cc1cc(C)cc(-c2nnc(SC(C)c3nc4ccccc4c(=O)[nH]3)o2)c1 (configuration not stated),-0.8,·
COc1ccc(-c2noc(COC(=O)/C=C/c3ccc(OC(F)F)cc3)n2)c(OC)c1,1.7,·
O=C(c1cccnc1)n1nc(NCc2ccccc2)nc1NCc1ccccc1,0.3,1.9
CC1=C(C(=O)Nc2ccccc2F)C(c2ccsc2)C2=C(CC(C)(C)CC2=O)N1 (configuration not stated),0.4,·
CC(C(=O)NC1CCCC1)N1CCN(c2ccccn2)CC1 (configuration not stated),0.7,·
COc1ccc(C(=O)COC(=O)C2CCC(=O)N2)cc1 (configuration not stated),-0.4,·
O=C(O)c1ccc(-n2cncn2)cc1,1.1,·
CCOc1ccc(C(CNC(=O)C(CC)c2ccccc2)N2CCOCC2)cc1OC (configuration not stated),0.4,·
NC(=O)c1ccccc1O,-0.2,0.45&-0.71
Cc1ncc(CC(=O)n2cc(C(=O)c3cc(F)ccc3O)cn2)s1,1.6,·
CC(Sc1ccc(Br)cc1)C(N)=O (configuration not stated),1.0,·

# (cont.)
SMILES,BasE inh,LANA-nucl inh
C=CCn1cc(C(=O)N(C)CCCC)c(=O)c2cc(S(=O)(=O)N(CC)CC)ccc21,1.7,-0.18
COc1ccc(CN2CCCCCC2)cc1,3.3,0.12
CCOC(=O)c1cc(C)nn1Cc1ccc(Cl)cc1,0.8,-1.4
Cc1ccccc1-c1nsc(SCC(=O)N2CCCCC2)n1,-2.2,-0.17
O=c1oc2ccccc2cc1-c1csc(NN=C2CCCC2)n1,0.4,0.48
COC(=O)C(C)Oc1ccc2c(c1)oc(=O)c1ccccc12 (configuration not stated),-6.5,1.9
CN1C(=O)C(=C(C#N)C#N)c2cc(Br)ccc21,-3.6,2.6
O=C(CSC1=NCCc2ccccc21)c1ccc(-c2ccccc2)cc1,-1.4,·
N#C/C(=C\c1ccco1)S(=O)(=O)c1ccc(Cl)cc1,3.1,0.047
CS(=O)(=O)CC(=O)c1ccc(Cl)c(Cl)c1,·,-0.47
O=C(O)CCC(=O)N1CCC(O)(c2ccc3c(c2)OCO3)CC1,1.0,-0.38
CCC(C)Sc1nnc(Cn2c(=O)sc3ccccc32)n1-c1ccc(OC)cc1 (configuration not stated),0.7,1.1
Cc1ccc(Oc2ncccc2NC(=O)c2ccc(Cl)cc2Cl)c2c1CCC2,5.2,·
Cc1ccc(NC(=O)C2=C(C(=O)O)CCCC2)cc1Br,0.1,-0.11
COc1cc(CN(C)Cn2cnc3ccccc32)ccc1OC(F)F,1.7,·
O=C(OCc1cc(=O)n2ccccc2n1)c1ccc(Cl)c(S(=O)(=O)N2CCCC2)c1,0.6,·
CCCc1cc(=O)[nH]c(SC(C)C(=O)NCc2ccccc2)n1 (configuration not stated),1.1,·
Cc1cc(C(=O)OCC(=O)c2ccc(Br)s2)no1,0.8,·
O=C(C1CCN(S(=O)(=O)c2cccs2)CC1)N(c1ccccn1)C1CCCCC1,1.2,·
Cc1ccccc1-n1cnnc1SCC(=O)Nc1ccc(S(=O)(=O)N2CCCC2)cc1,-2.9,·
Cc1cc(F)ccc1NC(=O)CCc1nnc2ccc(N3CCC4(CC3)OCCO4)nn12,-2.2,1.8
c1cn(-c2ccc(-c3nn[nH]n3)cc2)cn1,·,2.7
COc1ccccc1NC(=O)C1c2cc(OC)c(OC)cc2C(=O)N(C)C1c1cccnc1 (configuration not stated),0.4,-0.061
O=C(O)CCn1cnc2ccccc2c1=O,-12,0.96
Cc1noc(C)c1C(=O)NNc1ccccc1C(F)(F)F,0.3,-0.066

# 15 entries from above, sorted by number of heavy atoms, descending:
SMILES,BasE inh,LANA-nucl inh
COc1ccccc1NC(=O)C1c2cc(OC)c(OC)cc2C(=O)N(C)C1c1cccnc1 (configuration not stated),0.4,-0.061
CCn1cnc2c1c(=O)n(CC(=O)Nc1cccc(OC)c1)c(=O)n2Cc1ccccc1,-2.4,·
O=C(OCc1cc(=O)n2ccccc2n1)c1ccc(Cl)c(S(=O)(=O)N2CCCC2)c1,0.6,·
O=C(CC1OC(=O)c2ccccc21)Nc1ccccc1N1CCOCC1 (configuration not stated),0.7,·
CCOc1ccc(OCC(O)CNC2CC(C)(C)NC(C)(C)C2)cc1 (configuration not stated),0.9,·
Cc1cc(-c2ccc(S(=O)(=O)N3CCC4(CC3)OCCO4)s2)n[nH]1,-11,0.38
Cc1ccccc1-c1nsc(SCC(=O)N2CCCCC2)n1,-2.2,-0.17
C=CCOc1ccc(CNCc2cccnc2)cc1OC,1.6,1.1
Cc1ccc(NC(=O)C2=C(C(=O)O)CCCC2)cc1Br,0.1,-0.11
Cc1ccccc1OCc1nc2ccccc2n1C,-1.4,0.72
NC(=O)c1ccccc1NC(=O)COCC(=O)O,1.1,-0.27
CCNCC(=O)Nc1ccccc1C(F)(F)F,2.0,·
O=C(O)CCn1cnc2ccccc2c1=O,-12,0.96
CC1(C)C2CCC1C(O)C2O (configuration not stated),-0.3,1.4
NC(=O)c1ccccc1O,-0.2,0.45&-0.71

# Continued.
SMILES,BasE inh,LANA-nucl inh
CN1CCC(N(C)C(=O)c2cccc(S(=O)(=O)N3CCN(c4ccccc4)CC3)c2)CC1,-0.1,·
CCOC(=O)c1c[nH]c2nc(C)ccc2c1=O,27,-1.1
c1cncc(-c2csc(-c3cccnc3)n2)c1,2.2,-0.33
C=CCn1c(=O)/c(=C/c2ccc(C)o2)s/c1=C(/C#N)C(=O)c1ccccc1,-1.8,·
COc1ccc(C(=O)ON2C(=O)CCC2=O)cc1,-0.1,-0.38
CCOC(=O)c1cc(NC(=O)/C=C2/N(C)c3ccccc3C2(C)C)c(C)nc1C,1.5,·
CNC(=O)N(C1=NCC(C)(C)S1)c1ccc(F)c(Cl)c1,0.0,-0.066
Nc1nc(OC(C(F)(F)F)C(F)(F)F)nc(OC(C(F)(F)F)C(F)(F)F)n1,2.4,0.32
C=CCN1C(=O)C(Cc2ccc(OC)cc2)S/C1=N/N=C/c1ccco1 (configuration not stated),1.2,-0.67
Cc1cc(OCC[N+]2(C)CCCCC2)nc2ccccc12,-4.2,·
CCN1CCc2nc3ccccc3c(C(=O)Nc3ccc(F)cc3)c2C1,1.4,·
CC(=O)Nc1ccccc1OC(=O)N1CCOCC1,2.1,-0.63
Cc1ccc(O)c2c1NCCC2,2.2,-0.89
CCCCCn1c(=O)[nH]c2cc(C(=O)Nc3cc(OC)c(OC)c(OC)c3)ccc2c1=O,2.2,-0.67
O=C(NCc1ccccc1)/C(=N\O)c1ccccc1,-3.3,0.32
CCC(=O)Oc1ccc(Br)cc1/C=C1\Sc2ccccc2C1=O,0.6,·
O=C(O)c1ccccc1N(Cc1ccccc1)C(=O)c1ccccc1O,0.1,·
CN(CCc1ccc(Cl)c(Cl)c1)CC(O)COc1ccc(NS(C)(=O)=O)cc1 (configuration not stated),-2.5,0.12
O=C(Cc1ccccc1)N/N=C/c1ccccc1F,0.6,-0.51
COCCSc1nnc(NC(=O)C2CC(=O)N(C(C)(C)C)C2)s1 (configuration not stated),1.0,1.2
CN(C)c1ccc(NC(=O)Nc2ccccc2)cc1,·,-1.3
S=c1nc2[nH]c3cc4c(cc3c2n[nH]1)OCCO4,-2.3,·
Cc1ccccc1-c1noc(-c2ccc(OC(=O)c3ccccc3)cc2)n1,-0.5,-0.75
O=C1NC(Nc2ccccn2)(C(F)(F)F)C(=O)N1c1ccc(F)cc1 (configuration not stated),0.7,0.098
CC(=O)Nc1ccc(NC(=O)CNC(=O)COc2ccccc2)cc1,1.9,·

# The list goes on:
SMILES,BasE inh,LANA-nucl inh
Cc1ccc(C(=O)N(C)c2ccccc2)cc1Cl,-1.6,-0.59
CCOc1ccc(NC(=O)COC(=O)Cn2cnnn2)cc1OCC,4.0,·
Cc1ccc(-n2ncc3c(NCc4ccco4)ncnc32)cc1,-2.4,-0.76
OCC1CC(O)C(O)C(Oc2ccc3ccccc3c2)O1 (configuration not stated),0.6,0.21
CN(C)NS(=O)(=O)C1CCS(=O)(=O)C1 (configuration not stated),-0.7,0.15
NC(=O)N/N=C1\CCCc2ccccc21,0.4,·
O=C(O)c1ccc(N2CCCc3ccccc32)s1,1.6,0.77
CCN(CC)c1ccc(NC(=O)c2cc(=O)c3ccccc3o2)cc1,1.4,·
COC(=O)COc1ccc2c(=O)c(-c3csc(C)n3)coc2c1,1.7,-1.1
Cc1occc1C(=O)N/N=C/c1ccc(C(=O)O)cc1,2.9,-0.34
C=CCNC(=O)/C=C/c1ccc(Cl)c(Cl)c1,2.2,0.5
CCC(CC)C(=O)N1CCc2ccccc21,2.2,-0.35
O=C(Nc1ccccc1C(=O)N1CCOCC1)C1COc2ccccc2O1 (configuration not stated),1.8,-0.71
CCOC(=O)C(O)(c1ccc2nc(N)sc2c1)C(F)(F)F (configuration not stated),-5.2,1.5
Cc1nc(N2CCCC2)sc1C(=O)c1oc2ccccc2c1C,-13,·
O=c1[nH]c(O)c(C=NCc2cccs2)c(=O)[nH]1,3.1,-0.46
COc1cccc(C(=O)N2CCCC(C)C2)c1 (configuration not stated),3.9,0.81
Clc1ccc(C2=Nc3cccc4cccc(c34)N2)cc1,-0.5,·
Cc1noc(C)c1COC(=O)/C=C/c1cn(Cc2ccccc2)nc1-c1cccs1,3.0,·
Cc1ccc(CNS(=O)(=O)c2c(C(=O)N3CCCC3)c(C)n(C)c2C)cc1,1.1,0.015
CCOc1ccc(S(=O)(=O)N2CCC(C(=O)N/N=C/c3ccc(-c4ccc(F)cc4)o3)CC2)cc1,-0.2,·
CN1C=C(C(N)=O)C=CC1=C1C(=O)c2ccccc2C1=O,7.1,·
COc1ccc(CNC(=S)N2CCCC(C(F)(F)F)C2)cc1 (configuration not stated),3.3,·

# Not all compounds are listed. The share of hits here may be higher or lower than overall.
